UUG fidelity: modulators of start codon recognition fidelity in yeast. S. cerevisiae UUG-firefly luciferase reporter, luminescence/redox ratio. 0.13% of 350,000 active. activity score, % at 18.7 µM;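 active = replicate mean at a twofold rise or more, about +100% in these data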;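 also: firefly luciferase made from a UUG start codon reports start codon fidelity; reporter light over untreated wells divided by growth signal over untreated wells; some hits fall short of that in this replicate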
The depositor's hits bear a star.

SMILES	UUG fidelity
CN(C)C(=O)c1ccc(-c2ccc3c(c2)[C@H]2[C@H](CCN2Cc2ccc4c(c2)OCO4)[C@@H](CO)N3)cc1	19
COC(=O)C[C@@H]1CC[C@H]2[C@@H](COc3ccc(NC(=O)c4cc(C)on4)cc3C(=O)N2C)O1	8
O=C(c1ccccc1)N1CC[C@@H]2[C@@H](CO)Nc3ccc(C#Cc4cccc(F)c4)cc3[C@@H]21	-15
COc1ccc(NC(=O)Nc2ccc3c(c2)C(=O)N([C@H](C)CO)C[C@@H](C)[C@@H](CN(C)C)O3)cc1	15
C[C@@H]1CN([C@H](C)CO)C(=O)c2cc(NC(=O)c3ccncc3)ccc2O[C@@H]1CN(C)S(=O)(=O)c1ccc(Cl)cc1	1
C[C@H](CO)N1C[C@H](C)[C@H](CN(C)C(=O)C2CCCCC2)Oc2ncc(C#CC3CCCCC3)cc2C1=O	4
CNC[C@H]1Oc2ccc(NC(=O)NC3CCCCC3)cc2C(=O)N([C@H](C)CO)C[C@H]1C	-8
OC[C@H]1[C@@H](c2ccc(/C=C/c3ccccc3)cc2)[C@H]2CN(Cc3ccncc3)CCCCN21	-6
O=C(Cc1cccnc1)N1[C@@H](CO)[C@@H](c2ccccc2)[C@@H]1CNCC1CCC1	3
C[C@H](CO)N1C[C@H](C)[C@H](CN(C)Cc2ccc(Oc3ccccc3)cc2)Oc2ccc(NC(=O)Nc3ccc(C(F)(F)F)cc3)cc2C1=O	-34
COc1ccccc1NC(=O)N1CCCCN2[C@@H](CO)[C@H](c3ccc(C#Cc4ccccc4)cc3)[C@@H]2C1	10
C[C@@H]1CN([C@@H](C)CO)C(=O)c2cccc(NC(=O)c3cnccn3)c2O[C@@H]1CN(C)Cc1ccc(C(=O)Nc2ccccc2N)cc1	-9
C[C@H](CO)N1C[C@H](C)[C@H](CN(C)C(=O)Nc2ccc(C(F)(F)F)cc2)Oc2c(NC(=O)C3CCCCC3)cccc2C1=O	5
C[C@H]1CN([C@@H](C)CO)C(=O)c2cccc(NS(C)(=O)=O)c2O[C@@H]1CN(C)S(=O)(=O)c1cccs1	4
C[C@@H]1CN([C@H](C)CO)C(=O)Cc2cc(NC(=O)NC3CCCCC3)ccc2O[C@@H]1CN(C)Cc1ccc(C(=O)O)cc1	2
OC[C@H]1[C@@H](c2ccc(-c3ccccc3F)cc2)[C@H]2CN(Cc3ccncc3)CCCCN21	2
CN(C)CC#Cc1ccc([C@@H]2[C@H]3CN(C(=O)c4ccc5c(c4)OCO5)CCCCN3[C@H]2CO)cc1	-12
C[C@H]1CN([C@@H](C)CO)C(=O)Cc2cc(NC(=O)Nc3ccc(C(F)(F)F)cc3)ccc2O[C@H]1CN(C)C	6
Cn1cnc(S(=O)(=O)N2CCCCN3[C@H](CO)[C@@H](c4ccc(-c5cccc(F)c5)cc4)[C@@H]3C2)c1	-10
COc1cccc(C(=O)N2C[C@@H]3[C@H](c4ccccc42)[C@@H](CO)N3C(=O)c2cccc(F)c2)c1	0
COc1cccc(S(=O)(=O)Nc2ccc3c(c2)C(=O)N(C)[C@H]2CC[C@H](CC(=O)NCC4CCCCC4)O[C@H]2CO3)c1	-2
C[C@@H]1CN([C@H](C)CO)C(=O)c2cccc(NC(=O)c3ccc(-c4nccs4)cc3)c2O[C@@H]1CN(C)S(=O)(=O)c1ccc(F)cc1	9
C[C@H]1CN([C@@H](C)CO)C(=O)c2cc(NC(=O)CCN3CCOCC3)ccc2O[C@H]1CN(C)Cc1ccc(C(=O)O)cc1	-2
Cc1noc(C)c1S(=O)(=O)Nc1cccc2c1O[C@H](CN(C)C)[C@H](C)CN([C@H](C)CO)C2=O	5
COc1ccc(CN(C)C[C@H]2Oc3c(NC(=O)c4ccc(-c5nccs5)cc4)cccc3C(=O)N([C@H](C)CO)C[C@H]2C)cc1	-2
(list continues)
SMILES	UUG fidelity
Cc1ccc(S(=O)(=O)N(C)C[C@H]2Oc3ccc(NC(=O)CCN4CCOCC4)cc3C(=O)N([C@@H](C)CO)C[C@@H]2C)cc1	8
CN1c2ccc(-c3ccc(F)cc3)cc2[C@H]2[C@H](CCN2C(=O)c2cccnc2)[C@@H]1CO	-5
C[C@H](CO)N1C[C@H](C)[C@@H](CN(C)Cc2ccc(-c3ccccc3)cc2)Oc2ccc(NC(=O)CCCN(C)C)cc2CC1=O	-3
COc1ccc(C#Cc2ccc3c(c2)[C@@H]2[C@@H](CCN2S(=O)(=O)c2ccccc2C)[C@@H](CO)N3C)cc1	-11
C[C@H](CO)N1C[C@H](C)[C@@H](CN(C)S(=O)(=O)c2cccs2)Oc2ccc(NC(=O)CCCN(C)C)cc2C1=O	16
COc1ccc(-c2ccc3c(c2)[C@@H]2[C@@H](CCN2C(=O)c2cnccn2)[C@@H](CO)N3)cc1	-4
C[C@H](CO)N1C[C@H](C)[C@H](CN(C)S(=O)(=O)c2ccccc2)Oc2ccc(NC(=O)CCN3CCOCC3)cc2CC1=O	-1
O=C(C1CC1)N1[C@H](CO)[C@H]2c3ccccc3NC[C@H]21	-7
CNC[C@@H]1Oc2ccc(NS(=O)(=O)c3ccc(Cl)cc3)cc2CC(=O)N([C@@H](C)CO)C[C@@H]1C	26
CC=Cc1ccc2n(c1=O)C[C@@H]1[C@@H](CO)[C@H](C(=O)N3CCCCC3)[C@H]2N1C(=O)C1CC1 (mixture of isomers)	0
COc1cccc(-c2ccc([C@H]3[C@H](CO)N4CCCCN(S(=O)(=O)c5cn(C)cn5)C[C@@H]34)cc2)c1	0
COCC(=O)Nc1ccc2c(c1)C(=O)N(C)C[C@@H](OC)[C@@H](C)CN(C(=O)NC(C)C)[C@@H](C)CO2	-12
Cc1ccccc1S(=O)(=O)N1CCCCN2[C@H](CO)[C@H](c3ccc(C#CCN(C)C)cc3)[C@H]2C1	27
C[C@@H]1CN([C@H](C)CO)C(=O)c2cc(NC(=O)Cc3cn(C)c4ccccc34)ccc2O[C@@H]1CN(C)C(=O)Nc1cccc2ccccc12	0
CO[C@@H]1CN(C)C(=O)c2cc(NC(=O)C3CC3)ccc2OC[C@H](C)N(CC2CCCC2)C[C@@H]1C	-11
CC(C)NC(=O)Nc1cccc2c1O[C@H](CN(C)S(=O)(=O)c1ccc(Cl)cc1)[C@@H](C)CN([C@@H](C)CO)C2=O	4
CO[C@H]1CN(C)C(=O)c2cc(NC(C)=O)ccc2OC[C@H](C)N(Cc2ccc(F)cc2)C[C@@H]1C	3
C[C@@H]1CN([C@@H](C)CO)C(=O)c2c(c3ccccc3n2C)-c2ccccc2CO[C@H]1CN(C)C(=O)c1ccccc1	2
COc1ccc(S(=O)(=O)N(C)C[C@@H]2Oc3ccc(NC(=O)c4ccncc4)cc3C(=O)N([C@@H](C)CO)C[C@@H]2C)cc1	-4
C[C@H](CO)N1C[C@H](C)[C@H](CN(C)Cc2ccc(-c3ccccc3)cc2)Oc2ccc(NS(=O)(=O)c3cccs3)cc2C1=O	22
C[C@@H]1CN([C@H](C)CO)C(=O)Cc2cc(NC(=O)CCC(F)(F)F)ccc2O[C@@H]1CN(C)C	10
CO[C@@H]1CN(C)C(=O)c2ccc(NC(=O)C3CC3)cc2OC[C@H](C)N(Cc2ccc(F)cc2)C[C@@H]1C	7
O=C(C[C@@H]1C[C@H]2c3cc(NC(=O)Nc4ccccc4F)ccc3O[C@H]2[C@@H](CO)O1)NCCc1ccccc1	1
CN(C)C(=O)c1cccc(-c2ccc([C@@H]3[C@H](CO)N4CCCCN(CC5CCOCC5)C[C@@H]34)cc2)c1	20
CCCNC(=O)Nc1ccc2c(c1)C(=O)N(C)[C@H]1CC[C@@H](CC(=O)NCc3ccccc3)O[C@@H]1CO2	-5

A different layout for part of the listing above.
SMILES | UUG fidelity
C[C@H](CO)N1C[C@H](C)[C@@H](CN(C)S(=O)(=O)c2cccs2)Oc2ccc(NC(=O)CCCN(C)C)cc2C1=O | 16
COc1ccc(-c2ccc3c(c2)[C@@H]2[C@@H](CCN2C(=O)c2cnccn2)[C@@H](CO)N3)cc1 | -4
C[C@H](CO)N1C[C@H](C)[C@H](CN(C)S(=O)(=O)c2ccccc2)Oc2ccc(NC(=O)CCN3CCOCC3)cc2CC1=O | -1
O=C(C1CC1)N1[C@H](CO)[C@H]2c3ccccc3NC[C@H]21 | -7

Arranged by count of non-hydrogen atoms (smallest number first): four of the compounds above.
SMILES	UUG fidelity
CC(C)NC(=O)Nc1cccc2c1O[C@H](CN(C)S(=O)(=O)c1ccc(Cl)cc1)[C@@H](C)CN([C@@H](C)CO)C2=O	4
C[C@@H]1CN([C@@H](C)CO)C(=O)c2c(c3ccccc3n2C)-c2ccccc2CO[C@H]1CN(C)C(=O)c1ccccc1	2
COc1ccc(S(=O)(=O)N(C)C[C@@H]2Oc3ccc(NC(=O)c4ccncc4)cc3C(=O)N([C@@H](C)CO)C[C@@H]2C)cc1	-4
C[C@H](CO)N1C[C@H](C)[C@H](CN(C)S(=O)(=O)c2ccccc2)Oc2ccc(NC(=O)CCN3CCOCC3)cc2CC1=O	-1

More results follow:
SMILES	UUG fidelity
Cn1cnc(S(=O)(=O)N2CCCCN3[C@@H](CO)[C@@H](c4ccc(-c5ccc(F)cc5)cc4)[C@@H]3C2)c1	-10
C[C@H]1CN([C@@H](C)CO)C(=O)c2cc(NS(=O)(=O)c3cn(C)cn3)ccc2O[C@@H]1CN(C)S(=O)(=O)c1cccs1	-4
COc1ccc(CN(C)C[C@H]2Oc3ccc(N(C)C)cc3CC(=O)N([C@H](C)CO)C[C@H]2C)cc1	-13
C[C@@H]1CN([C@@H](C)CO)C(=O)Cc2cc(NC(=O)CCCN(C)C)ccc2O[C@H]1CN(C)S(=O)(=O)c1ccccc1	2
COc1cccc(S(=O)(=O)Nc2ccc3c(c2)C(=O)N(C)[C@@H]2CC[C@H](CC(=O)NCC4CCCCC4)O[C@H]2CO3)c1	-6
C[C@@H]1CN([C@H](C)CO)C(=O)c2cc(NC(=O)Cc3ccccc3)ccc2O[C@@H]1CN(C)C(=O)Nc1ccc(F)cc1	10
C[C@@H]1CN([C@H](C)CO)C(=O)c2cc(NC(=O)CCCN(C)C)ccc2O[C@H]1CN(C)S(=O)(=O)c1cccs1	2
COc1ccc(-c2ccc3c(c2)[C@@H]2[C@@H](CCN2C(=O)c2ccncc2)[C@@H](CO)N3C)cc1	1
CCCC#Cc1ccc2c(c1)[C@@H]1[C@@H](CCN1S(=O)(=O)c1ccc(C)cc1)[C@@H](CO)N2C	7
CC(C)NC(=O)N(C)C[C@H]1Oc2ccc(NC(=O)Nc3ccc4c(c3)OCO4)cc2C(=O)N([C@@H](C)CO)C[C@H]1C	3
CCCNC(=O)C[C@H]1CC[C@H]2[C@@H](COC[C@H](O)CN2Cc2ccncc2)O1	-3
COCC(=O)N(C)C[C@H]1[C@H](c2ccccc2)[C@@H](CO)N1C(=O)Cc1ccncc1	-9
CO[C@H]1CN(C)C(=O)c2cc(NC(=O)c3cc(C)on3)ccc2OC[C@H](C)N(C(=O)C2CC2)C[C@@H]1C	4
CO[C@@H]1CN(C)C(=O)c2ccc(NC(=O)C3CC3)cc2OC[C@H](C)N(Cc2nccs2)C[C@@H]1C	-13
N#Cc1cccc(-c2ccc3c(c2)[C@H]2[C@H](CCN2S(=O)(=O)c2ccc(F)cc2)[C@H](CO)N3)c1	-22
CN1c2ccc(C3=CCCCC3)cc2[C@H]2[C@H](CCN2S(=O)(=O)c2ccccc2)[C@@H]1CO	-12
C[C@H](CO)N1C[C@H](C)[C@@H](CN(C)C(=O)Nc2ccc(C(F)(F)F)cc2)Oc2ccc(NC(=O)CCN3CCOCC3)cc2C1=O	6
C[C@H](CO)N1C[C@H](C)[C@H](CN(C)S(=O)(=O)c2ccc(F)cc2)Oc2ccc(NC(=O)CCN3CCOCC3)cc2CC1=O	4
O=C(CN1CCOCC1)N1CC[C@@H]2[C@H]1c1cc(-c3ccccc3F)ccc1N[C@@H]2CO	5
COc1ccccc1NC(=O)N1CCCCN2[C@H](CO)[C@@H](c3ccc(-c4cccc(C#N)c4)cc3)[C@@H]2C1	12
CCC(=O)Nc1ccc2c(c1)OC[C@@H](C)N(C(=O)Cc1ccccn1)C[C@@H](C)[C@@H](OC)CN(C)C2=O	-7
COc1ccccc1NC(=O)N1CCCCN2[C@H](CO)[C@H](c3ccc(-c4cccc(C#N)c4)cc3)[C@@H]2C1	11
Cc1noc(C)c1NC(=O)Nc1cccc2c1O[C@H](CN(C)Cc1ccc(C(=O)O)cc1)[C@@H](C)CN([C@@H](C)CO)C2=O	-9
OC[C@@H]1[C@H](c2ccc(-c3cccc(F)c3)cc2)[C@H]2CN(Cc3cncnc3)CCCCN12	-19
CC(C)C#Cc1ccc([C@H]2[C@@H](CO)N3CCCCN(C(=O)c4ccc(F)cc4)C[C@H]23)cc1	27
The listing continues.
SMILES	UUG fidelity
Cn1cnc(CCNC(=O)C[C@@H]2CC[C@H]3[C@@H](COC[C@@H](O)CN3C(=O)Nc3ccc(Cl)cc3)O2)c1	-6
COc1ccc(NC(=O)Nc2ccc3c(c2)CC(=O)N([C@@H](C)CO)C[C@H](C)[C@H](CN(C)Cc2ccncc2)O3)cc1	-2
O=C(Nc1ccccc1)N1CCCCN2[C@H](CO)[C@H](c3ccc(-c4ccccc4F)cc3)[C@@H]2C1	7
CN1C(=O)c2cc(NC(=O)c3ccc(Cl)cc3)ccc2OC[C@@H]2O[C@@H](CC(=O)NCc3cccc(F)c3)CC[C@@H]21	-13
CCCNC(=O)NC[C@H]1[C@@H](c2ccc(C3=CCCC3)cc2)[C@H](CO)N1C(=O)CC	8
C[C@H](CO)N1C[C@H](C)[C@H](CN(C)C(=O)Nc2cccc3ccccc23)Oc2ccc(NC(=O)Nc3ccc4c(c3)OCO4)cc2C1=O	-10

Screening results: PubChem BioAssay, Broad Institute

A portion of the library; count on the stated rates, not on these rows.
